# PKD1 kinase inh – inhibitors of human PKD1 kinase; PKD1 kinase fluorescence polarization assay; inhibition, %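 (about 10 µM by stock and volumes)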; 0.056% of 200,000 active; Q15139;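 active = inhibition of 50% or more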;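 also: controls were vehicle for no effect and a reference inhibitor for full effect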
# Target sequence (Q15139 whole entry, looked up): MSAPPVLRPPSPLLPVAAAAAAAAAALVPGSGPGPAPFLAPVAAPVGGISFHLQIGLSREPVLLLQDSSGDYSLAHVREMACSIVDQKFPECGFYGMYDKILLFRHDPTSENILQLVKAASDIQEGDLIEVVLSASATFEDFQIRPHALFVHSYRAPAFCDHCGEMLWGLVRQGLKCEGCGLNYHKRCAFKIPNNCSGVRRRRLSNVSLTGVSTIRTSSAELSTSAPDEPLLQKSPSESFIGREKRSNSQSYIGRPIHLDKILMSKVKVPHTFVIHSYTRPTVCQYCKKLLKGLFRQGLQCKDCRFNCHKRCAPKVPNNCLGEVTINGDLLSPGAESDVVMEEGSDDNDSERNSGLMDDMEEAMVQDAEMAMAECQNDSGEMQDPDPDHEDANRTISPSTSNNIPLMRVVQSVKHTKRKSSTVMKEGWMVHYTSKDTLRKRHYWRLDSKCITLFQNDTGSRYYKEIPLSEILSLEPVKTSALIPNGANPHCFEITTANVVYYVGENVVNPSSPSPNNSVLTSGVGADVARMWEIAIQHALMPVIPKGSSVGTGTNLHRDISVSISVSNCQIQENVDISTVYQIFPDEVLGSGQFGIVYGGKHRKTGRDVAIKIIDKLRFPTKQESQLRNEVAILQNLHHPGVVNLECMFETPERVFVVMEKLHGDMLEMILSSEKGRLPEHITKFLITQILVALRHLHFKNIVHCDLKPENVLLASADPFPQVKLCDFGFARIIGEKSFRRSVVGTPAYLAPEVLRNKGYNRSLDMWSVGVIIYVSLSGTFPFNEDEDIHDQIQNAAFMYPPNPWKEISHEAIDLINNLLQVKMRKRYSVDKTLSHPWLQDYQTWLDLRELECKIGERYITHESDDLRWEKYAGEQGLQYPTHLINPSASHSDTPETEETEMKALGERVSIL
# Insulin prom inh – TRM-6 insulin promoter activity inhibition | TRM-6 cells (human fetal islet line), insulin promoter-eGFP reporter, imaging; reporter expression induced with tamoxifen | inhibition, % at 2 µM | 0.9% of 130,000 active | AID 1273;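 active = inhibition above the mean plus 3 SD, with well images judged a real hit on visual review, cut at about 60% in these data, passing the limit was not always enough; inconclusive = inhibition over the cutoff but images rejected on review; inactive = inhibition not above the cutoff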
# HSV replic up – HSV replication enhancement; AID 1956; maximum fold increase; HSV replication augmentation in cells, fold increase; 0.005% of 220,000 active;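 active = peak rise of 1.5-fold or more in the series; inconclusive = self-fluorescent or not available for retest; tested in PC3 cells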;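 also: first round at 10 µM; read as green reporter fluorescence; hits show the peak of a series up to 25 µM; 1 = signal of infected wells without compound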
# GALR2 agonist – activates the human galanin receptor 2 | AID 803 | GALR2-expressing cells, agonist activation read-out | O43603 | 0.48% of 140,000 active | activation, %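 (tested at 5 µM)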;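 active = above mean plus 3 SD of all compounds, about 5% in these data, not always enough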;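 also: 0% = vehicle buffer wells and 100% = reference agonist at full effect; tested in CHO reporter cells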
# RGS16-Gao – modulates binding between human RGS16 and Galphao. O15492+P09471. bead-based flow cytometry RGS16-Galphao binding, fluorescence; actives lie on both sides. binding response (% of control), % at 10 µM. 0.38% of 220,000 active. AID 1441;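 active = below 25% or above 175%, edge rows of some plates excepted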;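 also: Galphao activated by GDP with aluminum fluoride before binding; 100% = wells without compound and 0% = beads without RGS; some results beyond the cut were filed as inactive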
# Insulin prom inh cell count – further read-out of Insulin prom inh, marked with its call; normalized cell count, %; measured here: cell count, toxicity; reference of the scale not given here;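 cells exposed to compound for 48 h; stained nuclei by imaging scaled within each plate; lower means fewer cells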
# HSV replic up primary fold – recorded beside HSV replic up, whose call it bears; fold increase; compound at 10 µM; measured here: primary screen fold increase 10 uM; tested in PC3 cells;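 GFP signal in the first replicate; 1 = infected wells without compound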
# * marks the source's active call; other numbers are inactive results; i = inactive; ? = inconclusive; nt = not tested or not shown.
Compound,PKD1 kinase inh,Insulin prom inh,Insulin prom inh cell count,HSV replic up,HSV replic up primary fold,GALR2 agonist,RGS16-Gao
O=C(c1cc(Br)c(Br)s1)N1CCN(C/C=C/c2ccccc2)CC1,-3,-11,137,i,0.97,-3.0,100
COc1ccc(/C=N/NC(=O)c2ccccc2O)cc1Cn1cc([N+](=O)[O-])cn1,nt,nt,nt,i,0.96,nt,99
CCCN(CCC)C(=O)c1ccc2c(c1)OCO2,2,20,154,i,1.1,-0.6,103
COc1cccc2sc(N(CCN(C)C)C(=O)/C=C/c3cccs3)nc12,1,22,135,i,0.63,nt,93
CCOC(=O)c1ccccc1NC(=O)/C=C/c1cc(OC)c(OC)c(OC)c1,3,-16,71,i,1,-3.5,97
O=C1c2ccccc2C(=O)N1c1ccc(Br)c2cccnc12,-1,7,104,i,0.97,nt,111
S=C(NCCc1ccccc1)Nc1ccc(Nc2ccccc2)cc1,3,nt,nt,i,0.96,nt,103
CCOc1ccc(OCC)c(S(=O)(=O)NC2CC(C)(C)NC(C)(C)C2)c1,-10,nt,nt,i,0.91,nt,101
Clc1ncccc1-c1nc2ccccc2s1,2,-15,102,i,1,nt,100
O=C(c1sc(N2CCOCC2)nc1-c1ccccc1)N1CCCCC1,10,-23,54,i,1.1,-1.3,104
CCC(C)C(=O)N1c2ccccc2C(=C2SC(C(=O)OC)=C(C(=O)OC)S2)C(=S)C1(C)C (stereo not drawn),-11,5,76,i,0.91,-1.1,96
CCOC(=O)Cc1csc(SCC(=O)/C(C#N)=C(\C)N)n1,-8,nt,nt,i,1.1,-3.6,109
Cc1ccc(S(=O)(=O)n2nc(-c3ccc(Cl)cc3)nc2NCc2ccco2)cc1,-13,-18,133,i,0.92,2.1,100
Cc1cc(C(=O)Nc2nc3ccc(S(C)(=O)=O)cc3s2)c(C)o1,-6,38,131,i,1.1,-2.1,109
CC/C=C/C(=O)N1CC2(CC(c3cccc(NC(=O)CCCCC)c3)=NO2)C[C@H]1C(N)=O (stereo partly drawn),nt,nt,nt,i,0.72,nt,102
O=C(CSc1nnc(-c2ccccc2)n1-c1ccccc1)c1cccs1,-11,-14,85,nt,nt,-2.7,110
C=CCNC(=S)/N=c1/ccccn1CCC,nt,nt,nt,i,0.95,nt,103
O=C1C=C(N(CCO)CCO)C2(CCCCC2)O1,-17,nt,nt,i,0.85,-1.6,78
Cc1cc(C)c(S(C)(=O)=O)c(S(=O)(=O)c2ccc(Cl)cc2)n1,0,-30,118,i,0.94,-3.4,101
COc1cc(C2C3=C(CCCC3=O)Nc3[nH]n(-c4ccccc4)c(=O)c32)ccc1O (stereo not drawn),-11,-20,100,i,0.89,0.2,101
Cc1ccsc1C(=O)N/N=C/c1ccc2c(c1)OCO2,-20,12,134,i,0.99,-1.8,89
O=C(NC1CCCCC1)C(c1ccc2ncccc2c1)N(Cc1ccccc1)C(=O)c1cccs1 (stereo not drawn),-5,4,60,i,1,-0.3,96
O=C(NNC1=NCCCCC1)Nc1ccc(Cl)cc1,nt,nt,nt,i,1.1,nt,100
c1ccc(CCc2nc(-c3ccc(-n4cccc4)cc3)no2)cc1,6,nt,nt,i,0.79,-1.8,102
CC1CCc2sc3nc(N4CCN(CCO)CC4)n4ncnc4c3c2C1 (stereo not drawn),-3,nt,nt,i,0.99,0.2,110
CC(C)(C)c1ccc(/C=C/C(=O)Nc2ncccn2)cc1,-13,7,84,i,0.88,-0.7,104
CCC(C)NC(=O)CSc1nnc(-c2cc(-c3cccs3)nc3ccccc23)o1 (stereo not drawn),1,9,101,i,0.87,-2.3,101
COC(=O)c1cc(C#N)c(NCc2ccccc2)nc1C,-8,nt,nt,i,0.9,-0.2,71
COc1cccc2c1OCC/C2=N\NC(=O)COc1ccccc1C,-5,7,101,i,0.96,0.7,96
CCOc1ccc(-n2c(SC(C)C(=O)OC)nc3c(c2=O)SCC3)cc1 (stereo not drawn),-12,12,132,i,0.86,-1.0,nt
O=C(NCc1ccccn1)C(=O)NCC(c1ccco1)N1CCN(c2ccc(F)cc2)CC1 (stereo not drawn),-2,nt,nt,i,1.1,nt,100
C=CCn1c(SCc2csc(-c3ccc(Cl)cc3)n2)nnc1-c1ccccc1OC,-10,nt,nt,i,1,-1.2,110
O=C(NNc1cc(Cl)ccc1Cl)C1CCC1,nt,nt,nt,i,1.3,nt,90
Cc1ccc(C(=O)NCCc2csc(C)n2)cc1,2,nt,nt,i,0.93,-3.1,105
CC(c1ccccc1)C1CC(=O)N(CC(=O)O)C1=O (stereo not drawn),-9,-300,43,i,0.75,-0.5,102
COCCNc1oc(-c2cccs2)nc1S(=O)(=O)c1ccc(C)cc1,-1,0,94,i,0.98,nt,102
O=C(COC(=O)CSCC(=O)N1CCCCC1)Nc1ccc(Cl)cc1,7,25,75,i,0.91,-0.1,102
CCCCC(=O)Nc1ccc(C(=O)NNC(=S)NC(=O)c2ccccc2[N+](=O)[O-])cc1,-5,-24,120,i,1.1,nt,104
CC(C)COn1c(=S)[nH]c2ccccc2c1=O,2,-3,96,i,0.88,-0.8,106
COc1ccc(CCN(C)CCN2C(=O)c3ccccc3C2=O)cc1OC,-8,nt,nt,i,1.1,-3.2,88
COc1ccc(NC(=O)C(c2ccc(C)cc2)N(C)C(=O)CNC(C)=O)cc1 (stereo not drawn),-4,-12,168,i,0.92,-1.5,105
COc1ccc(-n2c(C)nn(CCOc3ccccc3)c2=O)cc1,-7,nt,nt,i,0.96,nt,100
CCCn1cnc2c(N)c(C)c(C)cc21,-14,nt,nt,i,1.2,-0.9,94
Cc1nc(C(=O)NC(C)C)nn1-c1cc(Cl)cc(Cl)c1,1,nt,nt,i,0.78,nt,92
O=C1CC(c2ccc(S(=O)(=O)N3CCN(c4ccccc4)CC3)cc2)CN1 (stereo not drawn),3,56,105,i,0.96,-2.1,104
CCNC(=S)N1CCN(CCN=CC2=C(O)CC(c3cccs3)CC2=O)CC1 (stereo not drawn),1,29,72,i,0.75,-1.6,108
C=CCc1c(OC(C)=O)c2ccccc2n(C)c1=O,-8,-103,2,i,0.99,1.6,102
Cc1sc(NC(=O)c2ccco2)c(CN2CCN(Cc3ccccc3)CC2)c1C,-6,nt,nt,i,0.97,nt,100
C#CCSc1nnc(-c2ccc(O)cc2)o1,1,nt,nt,i,0.91,nt,110
CCCC(=O)Nc1cc(-c2cn3cccnc3n2)ccc1OC,3,-127,46,i,1.1,-2.9,103

# Next part.
Compound,PKD1 kinase inh,Insulin prom inh,Insulin prom inh cell count,HSV replic up,HSV replic up primary fold,GALR2 agonist,RGS16-Gao
COc1cc(-c2ncc3ccccn23)cc(OC)c1OC,7,13,58,nt,nt,-2.4,114
CC12CN(C(=O)c3ccccc3Br)CC(C)(CN(C(=O)c3ccccc3Br)C1)C2=O,nt,nt,nt,i,1.2,nt,97
COc1ccc(CC2(CO)CCN(C(=O)NCc3ccccc3)CC2)cc1,-4,-27,21,i,1.1,nt,114
COc1ccc(Nc2nc(Cl)nc(Nc3ccc(OC)cc3OC)n2)c(OC)c1,5,7,102,i,0.98,nt,98
O=C(NCCCn1ccnc1)c1cc(S(=O)(=O)N2CCOCC2)ccc1F,2,20,130,i,0.92,nt,99
CCOC(=O)c1cc(-c2ccc(OC)cc2)n[nH]1,nt,nt,nt,i,0.94,nt,93
CC(=O)c1cccc(CN2CCN(C3CCCC3)C(CCO)C2)c1 (stereo not drawn),1,nt,nt,i,1.1,nt,112
CC(C)(C)c1cc(=O)[nH]c(SCc2ccccc2)n1,2,nt,nt,i,1.1,nt,102
CSc1ncc(CN2CCN(CCC(C)C)C(CCO)C2)cn1 (stereo not drawn),2,nt,nt,i,1.1,nt,105
COC(=O)C1=C(O)/C(=C\c2ccc(CNS(=O)(=O)c3ccc(Cl)cc3)o2)N=C1C,-1,-38,77,?,nt,-1.1,105
CC(Oc1ccc(Cl)cc1Cl)C(=O)Nc1cccnc1 (stereo not drawn),0,-150,107,i,0.81,-0.5,102
CCOC(=O)/C(C#N)=C/c1cccc([N+](=O)[O-])c1,nt,nt,nt,i,0.96,nt,105
COc1ccc([C@@H]2C[C@H]3CN(Cc4ccccc4OC)C(=O)[C@]34CCCN24)cc1C,-2,-293,100,i,1,nt,111
CCCCOc1ccc(N2C(=O)CC(N(O)c3ccccc3)C2=O)cc1 (stereo not drawn),-10,25,100,i,0.85,-2.5,98
Nc1nc(N2CCN(c3ccccc3)CC2)n[nH]1,0,37,134,i,0.97,nt,107
Cc1ccc(Nc2c(-c3cccnc3)nc3ccc(Br)cn23)cc1,1,nt,nt,i,0.89,nt,98
OCCNCCOCCOc1ccccc1-c1ccccc1,0,-22,83,i,1.1,-1.8,165
CC(CC(=O)O)CC(=O)Nc1cccc([N+](=O)[O-])c1 (stereo not drawn),-2,nt,nt,i,0.92,nt,99
COCCn1c(-c2cccs2)nc2c(c(=O)c3ccccc3n2C)c1=O,-3,35,127,i,0.9,-0.2,105
CCN1C(=O)c2cccc3c(NC(=O)C(C)(C)C)ccc1c23,-2,3,91,i,0.94,-2.7,173
O=C(c1ccco1)N1N=C(c2ccncc2)CC1(O)C(F)(F)F (stereo not drawn),-2,-21,155,i,0.98,nt,101
Cc1ccc(C(=O)OCC(=O)N2CCc3ccccc32)cc1,-10,-11,85,i,1,-0.6,120
O=C(c1ccccc1)n1ccc2ccccc21,-5,-3,149,i,0.89,-0.8,98
COC1=CC(=O)CC(C)C12Oc1c(Cl)c(OC)cc(OC)c1C2=O (stereo not drawn),-1,27,91,i,0.85,0.0,99
Cc1cc(C)n2nc(SCc3cc(=O)oc4cc(C)c(C)cc34)nc2n1,-3,-12,80,nt,nt,0.8,112
O=C(Cn1nnc(-c2cc(C(F)(F)F)cc(C(F)(F)F)c2)n1)NNC(=S)Nc1ccc(Cl)cc1,nt,nt,nt,i,0.99,nt,169
O=C(c1nc2ccccn2c1CN1CCN(c2ccccc2O)CC1)N1CCCC1,-1,nt,nt,i,0.92,nt,99
O=C(Cn1c(=O)sc2ccccc21)NCc1ccco1,-8,nt,nt,i,0.97,-2.5,103
COc1ccc(N2C(N)=NC(N)=NC23CCCC3)cc1,9,nt,nt,i,0.85,-4.2,103
CC(CCc1ccccc1)NC(=O)/C=C/c1ccc(Cl)cc1 (stereo not drawn),4,5,126,i,0.93,-2.4,104
CS(=O)(=O)N1CCN(c2ccccc2NC(=O)Cc2ccccc2)CC1,-2,-72,126,i,0.84,-1.4,100
CCN(CC)CCNc1nc(-c2ccc(OC(F)F)cc2)c(C)s1,0,nt,nt,i,1,nt,99
Cc1sc2nc[nH]c(=S)c2c1-c1ccccc1,3,nt,nt,i,0.83,nt,98
CCC(C)[C@H](NC(=O)NCc1ccccc1)C(=O)O (stereo partly drawn),-5,0,99,i,0.95,-1.1,104
O=C1c2ccccc2C(=O)N1CSc1nnc(Nc2ccccc2F)s1,1,nt,nt,i,1,0.0,102
O=C(NCc1nc(-c2ccc(C(F)(F)F)cc2)no1)Nc1ccc(F)cc1F,nt,nt,nt,i,0.88,nt,105
CCOC(=O)Cc1csc(NC(=O)Cc2ccccc2)n1,-7,41,106,i,1,nt,99
O=S(=O)(Nc1ccc(-c2cn3cccnc3n2)cc1)c1ccccc1,-1,nt,nt,i,0.94,nt,98
O=C(Nc1cccc(S(=O)(=O)N2CCCCC2)c1)c1ccc(S(=O)(=O)C(F)F)cc1,1,nt,nt,i,0.89,nt,102
CC(OC(=O)C1CC=CCC1C(N)=O)C(Cl)=C(Cl)Cl (stereo not drawn),4,0,129,i,1,-0.4,101
Cn1c(NCc2ccco2)nc2c1c(=O)n(Cc1ccc(Cl)c(Cl)c1)c(=O)n2C,-8,nt,nt,i,0.87,-1.3,97
C=CCN1C(=O)CSc2ccc(C(=O)OCC)cc21,-10,nt,nt,i,1,-1.3,99
COCCCNC(=O)CN(c1cc(C(F)(F)F)ccc1Cl)S(C)(=O)=O,nt,nt,nt,i,1.1,nt,93
O=C(/C=C/c1cccc([N+](=O)[O-])c1)N1CCN(C(=O)c2ccco2)CC1,-5,-7,97,i,1,-2.1,109

# Screening data as filed in PubChem BioAssay.
